Sa RN4220 lethal: growth inhibition of S. aureus RN4220, primary screen, OD600; 16 h; inhibition, % (no concentration beside the values); 330,000 tested, 0.33% active; AID 1259311, 2017;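 active means z-score of -3 or lower and OD600 up to 0.18 on both plates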;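 further: plate controls were untreated cells for no effect and reference antibiotic for full effect; stock transfer was 100 nL into about 80 µL; one replicate is shown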
BJeLR lethal: MLPCN primary cell-based screen for lethality selective to Ras in HRASV12 cells; BJeLR (HRASV12) viability, CellTiter-Glo ATP luminescence, 48 h; reference of the scale not given here; inhibition, % (test concentration not listed); 300,000 tested, 0.17% active;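 active means replicate mean above 50%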;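 further: 50 nL library stock added to about 25 µL; numbers are from one replicate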
Sa ugtP lethal: growth inhibition of ugtP-null S. aureus, primary screen, RN4220 ugtP deletion, OD600; AID 1259309, 2017; growth inhibition, % (concentration not given with the values); 330,000 tested, 0.54% active; 16 h; some inactives read as strong as hits;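 active means z-score under -3 and OD600 up to 0.15 on both plates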;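 further: plate controls were untreated wells for no effect and antibiotic for full effect; wells of about 80 µL received 100 nL stock; the first replicate is given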
Mtb hypoxia rep: PubChem AID 1159583; fluorescence inhibition, % (no concentration beside the values); 300,000 tested, 0.1% active; M. tuberculosis hypoxia-regulated fluorescent reporter, fluorescence;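 active means 35 to 45% if threefold the growth effect, above 45% if 1.5-fold the growth effect; inactive means the rest, general growth blockers included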;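 further: wells of about 50 µL received 100 nL stock; 0% = vehicle wells and 100% = reference inhibitor wells; whole bacteria with a GFP reporter of the hypoxia response; strong numbers were not always called active; many hits fall short of the cut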
PrP 5UTR inh: inhibition of PrP 5' UTR reporter expression. 340,000 tested, 0.35% active. inhibition, % (test concentration not listed). cell-based PrP 5' UTR mRNA reporter, plate reader;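 active means every replicate at 50% or more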;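 further: 0 = median of the neutral control wells; tested in H4 reporter cells; numbers are from one replicate; inactives centre near -14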
Autofluor counter: compound fluorescence in toxin protease inhibitor counterscreen; compound autofluorescence counterscreen, microsphere flow cytometry; stronger effect = higher value; fluorescence intensity (no concentration beside the values); 360,000 tested, 3.1% active;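 active means at least 3 SD above the mean of all compounds, about 16000 in these data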;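 further: 100 nL of 1 mM stock went into each well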
Mtb hypoxia rep growth: also measured in Mtb hypoxia rep; calls as there; growth inhibition, %; measured here: M. tuberculosis growth (absorbance);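 0% = vehicle and 100% = reference antibiotic; read after six days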
* = called active by the depositor; · = no result given; & = joins results of further samples. Compounds were not picked by outcome; 3.9% or so of the library scored in one or more.

cpd	canonical_smiles	Sa RN4220 lethal	BJeLR lethal	Sa ugtP lethal	Mtb hypoxia rep	Mtb hypoxia rep growth	PrP 5UTR inh	Autofluor counter
1	CN(C(=O)CC1C(=O)NCCN1Cc1ccc(F)c(F)c1)C1CCOCC1 (centres undefined)	3.0	6	1	1	2	-23	4733
2	O=C(NCc1ccccn1)c1cc(-c2ccc(Br)cc2)nc2ccccc12	-3.1	-1	-8	6	3	-12	3717
3	Cc1[nH]c(=O)[nH]c(=O)c1S(=O)(=O)N(C)Cc1ccccc1	7.9	-2	-4	10	10	-17	5301
4	CCC(C)Sc1nc2c(c(=O)n1C)SC(C)C2 (centres undefined)	-5.1	-1	-4	5	6	-8	5373
5	COc1ccccc1CNC(=O)CC(C)=NNC(=O)Cc1ccc(Cl)cc1	6.5	·	8	-14	-3	·	·
6	CN(c1ccccc1C(=O)NCc1ccco1)S(C)(=O)=O	3.8	-4	-9	0	1	-11	4253
7	CCCCNC(=O)N1CCCC(C(=O)c2cc(C)c(OC)c(C)c2)C1 (centres undefined)	-2.2	4	6	13	-1	2	3701
8	CCOCCCNC(=O)c1ccc2c(c1)N(CC)C(=O)c1ccccc1S2=O (centres undefined)	0.5	-16	9	-3	3	-8	3503
9	CCN1CCn2c3c(c4cc(C)ccc42)CCCC31 (centres undefined)	-0.9	0	-6	·	·	2	4526
10	CCCCNC(=O)CSc1nnc(-c2ccc(S(=O)(=O)N3CCCC3)cc2)n1C	5.0	-3	8	-2	11	-15	4080
11	O=C(O)C(Cc1ccc(Cl)cc1)NS(=O)(=O)c1ccc(Cl)cc1 (centres undefined)	-0.3	7	2	13	-2	·	3793
12	COc1ccc(CNC(=O)C(C)N(Cc2ccccc2OC)C(=O)c2snc(C(N)=O)c2N)cc1 (centres undefined)	-2.0	-2	-1	4	7	34	4138
13	O=c1c(=Nc2ccccc2O)c(=O)c2ccccc12	·	4	·	·	·	-72	4408
14	c1csc(-c2nn3c(Cn4nnc5ccccc54)nnc3s2)c1	6.2	5	3	7	8	-42	9997
15	COc1ccc(-c2nnc(SCC(=O)c3cc(C)n(Cc4cccs4)c3C)o2)cc1	11	-13	-1	·	·	4	3452
16	O=C(NCc1nc2ccccc2[nH]1)C1=CC(C2CC2)CC(OCCCCO)O1 (centres undefined)	-2.3	·	-2	14	9	·	·
17	Cc1ccc2nc(-c3ccccc3)cc(C(=O)N(C)CC(=O)Nc3ccccc3Br)c2c1	-0.2	5	6	3	0	-21	4989
18	CC1CN(Cc2ccccc2)c2ccccc2NC1=S (centres undefined)	1.3	-11	-6	2	3	-9	2639
19	CCN(/C=N/S(=O)(=O)c1ccc(Cl)cc1)CC	·	4	·	·	·	-22	4438
20	COc1ccc2oc(C(=O)OCC(=O)N3CCC(C)CC3)c(C)c2c1	1.8	2	2	7	6	-7	5667
21	CC(=NNC(=O)CNC(=O)c1cccnc1)c1cccc(O)c1	2.0	·	-8	-1	9	·	·
22	Cc1ccc(S(=O)(=O)N2C(=O)C(c3ccccc3)SC2=Nc2ccccc2)cc1 (centres undefined)	-0.7	1	0	·	·	-22	4149
23	Cc1cc(NC(=O)c2cccc(S(=O)(=O)N3CCCCC3)c2)no1	5.2	8	18	2	2	-8	4245
24	CN(C)Cc1c(C(=O)NN=Cc2cccc(OCc3ccccc3)c2)nnn1-c1nonc1N	3.6	·	0	-5	-4	·	·
25	NC(=O)Cn1cc(C=NNS(=O)(=O)c2ccc(F)cc2)c2ccccc21	-2.2	·	3	-3	2	·	·
26	CCCN1CC(=O)N2C(c3ccccc3)c3[nH]c4ccccc4c3C[C@H]2C1=O (some centres undefined)	-0.1	4	-4	-3	1	-4	3432
27	CCOCCCNC(=O)CN1C(=O)NC(Cc2c[nH]c3ccccc23)C1=O (centres undefined)	3.8	2	2	1	5	-14	3759
28	CCCCCC(=O)Nc1ccc(S(=O)(=O)Nc2nccnc2OC)cc1	2.9	-14	7	15	6	-14	10518
29	CCOc1ccc2c(c1)[N+](C)(C)C(C)(C)C=C2C	-1.2	0	6	3	1	-10	4801
30	CN1CCC(=NNC(=O)C(=O)Nc2cccc(Br)c2)CC1	5.4	1	2	10	-1	-5	2565
31	COc1ccc(OC)c(NC(=O)C(CCSC)NS(=O)(=O)c2cccs2)c1 (centres undefined)	3.4	-3	-1	7	4	-6	3149
32	O=c1[nH]c(=O)n(-c2ccccc2F)c(O)c1C=NCCC1=CCCCC1	·	-3	·	·	·	-4	4595
33	Cc1cc(Nc2ccc(F)cc2C)n2ncnc2n1	3.6	-8	-3	·	·	-13	6183
34	CN(C)Cc1c(C(=O)Nc2ccccc2)[nH]c2ccccc12	-0.9	-4	-2	-3	-4	-24	4193
35	COc1ccc(NC(=O)CSc2nnc(C3CC3)n2C)cc1S(=O)(=O)N1CCCCC1	1.7	·	6	20	5	-20	3728
36	O=c1cc(CO)oc(CN2CCCC2)c1O	-4.1	-5	-2	-6	3	-12	5865
37	O=C(CSc1nc(-c2ccc(F)cc2)cs1)N1CCN(C(=O)c2ccco2)CC1	0.5	-1	-8	9	-1	-7	10145
38	CCCCNC(=O)C1(O)c2ccccc2NC(=O)N1c1ccc(Cl)cc1 (centres undefined)	0.6	-5	0	12	-1	-23	3823
39	O=C(O)c1ccc(COc2ccc([N+](=O)[O-])cc2)o1	2.2	-2	1	6	-3	-42	2966
40	CN1C/C(=C/c2ccsc2)C(=O)/C(=C/c2ccsc2)C1	0.1	5	14	4	11	-4	2545
41	CC(Sc1nnc(CNC(=O)c2ccccc2F)n1C)C(=O)Nc1nccs1 (centres undefined)	-2.1	12	0	-7	-3	-13	3504
42	COc1cc(CNc2ccc3[nH]c(=O)[nH]c3c2)cc(Cl)c1OCC(=O)NC(C)(C)C	10	8	2	·	·	-8	2218
43	COc1cccc(NC(=O)CCCNC(=O)Cn2cnc3sc(C)c(C)c3c2=O)c1	2.4	-6	5	1	-3	-11	4269
44	Nn1cnnc1N/N=C/c1cccc(Cl)c1Cl	·	4	·	·	·	2	3806
45	Cc1ccc(C)c(C(C)NC(=O)c2ccccc2Br)c1 (centres undefined)	17	-5	-7	13	10	-14	6896
46	Clc1ccc(N2CCNCC2)nn1	3.0	·	2	6	3	-6	3938
47	Cc1ccccc1NC(=S)N1CCN(c2ccccc2)CC1	2.3	-13	3	10	0	-14	3717
48	CC(=O)c1sc(NC(=O)c2ccc(Br)o2)nc1C	2.4	7	-2	-6	0	-39	6109
49	C=C(C)C(=O)Nc1cccc(C2=NOC3(C2)C[C@@H](C(N)=O)N(C(=O)C2(C)CC2)C3)c1 (some centres undefined)	·	-8	·	·	·	-32	3593
50	COC(=O)c1ccc2nc(NC(=O)C3CCCCC3)sc2c1	-1.2	8	-6	-2	6	-39	2497
51	Cc1cc(Br)ccc1OCC(=O)NNC(=O)c1cnccn1	4.7	9	3	-7	2	-3	2757
52	COc1cc(/C=N/Nc2cc(C)nc(N)n2)ccc1O	·	-7	·	·	·	-20	3788
53	COc1ccccc1OCCC(=O)OCCN1C(=O)c2ccccc2C1=O	5.2	-14	3	15	4	-11	4022
54	Cc1ccc(S(=O)(=O)N2CCN(C(=O)C3CCN(C(=O)c4ccccc4C)CC3)CC2)cc1C	4.4	5	13	-2	-3	-63	4308
55	C/C(=N\NC(=O)C(O)(c1ccccc1)c1ccccc1)c1ccc(C)o1	·	-16	·	·	·	-16	2153
56	O=C(c1ccc2c(c1)OCO2)N1CCN(c2ccc(Cl)cc2)CC1	1.3	-5	1	9	15	-22	13270
57	Cn1c(=O)c([N+](=O)[O-])c(NCCCn2ccnc2)c2ccccc21	4.3	-4	5	9	3	-22	5517
58	COc1cc(C(=O)Nc2cccc(-c3nnc(-c4ccco4)o3)c2)ccc1OC(C)=O	-19	-37	-5	-4	-4	-36	3797
59	CCn1c(=O)c2ccccc2n(CC(=O)NCCC2=CCCCC2)c1=O	-0.8	7	10	-6	5	-12	3929
60	CC(NC(=O)c1nc[nH]c1C(=O)NCCCCCNC(=O)OC(C)(C)C)C(=O)OCc1ccccc1 (centres undefined)	11	·	6	21	10	·	·

10 entries from above, with two lines to a compound:
The line under a structure holds: Sa RN4220 lethal | BJeLR lethal | Sa ugtP lethal | Mtb hypoxia rep | Mtb hypoxia rep growth | PrP 5UTR inh | Autofluor counter
1: CN(C(=O)CC1C(=O)NCCN1Cc1ccc(F)c(F)c1)C1CCOCC1 (centres undefined)
 : 3.0 | 6 | 1 | 1 | 2 | -23 | 4733
2: O=C(NCc1ccccn1)c1cc(-c2ccc(Br)cc2)nc2ccccc12
 : -3.1 | -1 | -8 | 6 | 3 | -12 | 3717
3: Cc1[nH]c(=O)[nH]c(=O)c1S(=O)(=O)N(C)Cc1ccccc1
 : 7.9 | -2 | -4 | 10 | 10 | -17 | 5301
4: CCC(C)Sc1nc2c(c(=O)n1C)SC(C)C2 (centres undefined)
 : -5.1 | -1 | -4 | 5 | 6 | -8 | 5373
5: COc1ccccc1CNC(=O)CC(C)=NNC(=O)Cc1ccc(Cl)cc1
 : 6.5 | · | 8 | -14 | -3 | · | ·
6: CN(c1ccccc1C(=O)NCc1ccco1)S(C)(=O)=O
 : 3.8 | -4 | -9 | 0 | 1 | -11 | 4253
7: CCCCNC(=O)N1CCCC(C(=O)c2cc(C)c(OC)c(C)c2)C1 (centres undefined)
 : -2.2 | 4 | 6 | 13 | -1 | 2 | 3701
8: CCOCCCNC(=O)c1ccc2c(c1)N(CC)C(=O)c1ccccc1S2=O (centres undefined)
 : 0.5 | -16 | 9 | -3 | 3 | -8 | 3503
9: CCN1CCn2c3c(c4cc(C)ccc42)CCCC31 (centres undefined)
 : -0.9 | 0 | -6 | · | · | 2 | 4526
10: CCCCNC(=O)CSc1nnc(-c2ccc(S(=O)(=O)N3CCCC3)cc2)n1C
 : 5.0 | -3 | 8 | -2 | 11 | -15 | 4080

Remaining list, next part
cpd	canonical_smiles	Sa RN4220 lethal	BJeLR lethal	Sa ugtP lethal	Mtb hypoxia rep	Mtb hypoxia rep growth	PrP 5UTR inh	Autofluor counter
61	Cc1ccc(S(=O)(=O)NC(c2ccccc2)C(C)C(=O)n2nc(C)cc2C)cc1 (centres undefined)	11	3	-3	·	·	-27	5798
62	CC(C)CNC(=O)C1CCCN(S(=O)(=O)c2ccc(-n3cnnn3)cc2)C1 (centres undefined)	-0.5	-3	1	·	·	-10	4281
63	O=C(NCc1ccco1)C(c1ccco1)N(Cc1cccs1)C(=O)Cn1nnc2ccccc21 (centres undefined)	-2.9	1	5	5	0	-10	4148
64	Nc1c(Br)cc(Br)cc1CNC1CCC(O)CC1 (centres undefined)	3.7&0.2	13&-1	4&-1	6&-2	1&2	-4&-15	5902&5440
65	CCOc1ccc(N2C(=O)C3C(C2=O)C3(c2ccccc2)c2ccccc2)cc1 (centres undefined)	5.2	-2	17	12	2	0	10353
66	CC1CCc2sc(C(=O)N/N=C/c3ccc(O)cc3)cc2C1 (centres undefined)	·	-5	·	·	·	-21	5587
67	CC1(C)CC(CCN)(Cc2ccccc2Cl)CCO1 (centres undefined)	3.2	-3	4	5	12	-14	·
68	Cn1c(N)c(C(=O)COC(=O)c2cc(C3CC3)nc3ccccc23)c(=O)n(Cc2ccccc2)c1=O	-9.9	6	10	-8	2	-7	3993
69	CC(OC(=O)C1CC1)C(=O)Nc1ccc([N+](=O)[O-])cc1Cl (centres undefined)	4.0	17	9	12	14	-12	4436
70	O=C(CSc1nnnn1-c1ccccc1)Nc1ccccc1	3.3	2	10	3	4	-9	3103
71	CC1CC(C)CN(S(=O)(=O)c2ccc(NC(=O)C3CC(=O)N(Cc4ccccc4)C3)cc2)C1 (centres undefined)	-1.3	6	-5	0	0	-12	6071
72	CCOc1nc(-c2ccccc2Cl)nc2ccccc12	4.7	-8	40	9	19	10	·
73	CCN(CC(=O)NCc1cccs1)S(=O)(=O)c1cc(NC(C)=O)ccc1OC	7.3	·	8	11	4	19	·
74	COc1ccc2c(c1)-c1nc(/N=C/c3cccc(OC)c3O)sc1CC2	·	-11	·	·	·	-16	2787
75	CCNC(=O)c1ccc(NS(=O)(=O)c2ccc3[nH]c(=O)[nH]c3c2)cc1	6.1	-5	6	2	5	-14	5740

High-throughput results: PubChem, several laboratories
